# KCNQ2 enhance: enhances the rat KCNQ2 potassium channel; actives 0.54% (n = 310,000); B-score at 10 µM; O88943; CHO-K1 KCNQ2, FluxOR thallium flux fluorescence; hits give high values;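 active = fluorescence ratio B-score at least 3 SD of library B-scores, with initial fluorescence B-score within 3 SD, cut at about 5.3 in these data; same plate scores as AID 2156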;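 also: B-score of peak minus minimum over baseline fluorescence ratio after K+ and Tl+ stimulus; positive B-score means potentiation of KCNQ2 with more thallium influx and brighter signal; only the inactives scoring about 0 or higher are listed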
# Target sequence (O88943 whole entry, looked up): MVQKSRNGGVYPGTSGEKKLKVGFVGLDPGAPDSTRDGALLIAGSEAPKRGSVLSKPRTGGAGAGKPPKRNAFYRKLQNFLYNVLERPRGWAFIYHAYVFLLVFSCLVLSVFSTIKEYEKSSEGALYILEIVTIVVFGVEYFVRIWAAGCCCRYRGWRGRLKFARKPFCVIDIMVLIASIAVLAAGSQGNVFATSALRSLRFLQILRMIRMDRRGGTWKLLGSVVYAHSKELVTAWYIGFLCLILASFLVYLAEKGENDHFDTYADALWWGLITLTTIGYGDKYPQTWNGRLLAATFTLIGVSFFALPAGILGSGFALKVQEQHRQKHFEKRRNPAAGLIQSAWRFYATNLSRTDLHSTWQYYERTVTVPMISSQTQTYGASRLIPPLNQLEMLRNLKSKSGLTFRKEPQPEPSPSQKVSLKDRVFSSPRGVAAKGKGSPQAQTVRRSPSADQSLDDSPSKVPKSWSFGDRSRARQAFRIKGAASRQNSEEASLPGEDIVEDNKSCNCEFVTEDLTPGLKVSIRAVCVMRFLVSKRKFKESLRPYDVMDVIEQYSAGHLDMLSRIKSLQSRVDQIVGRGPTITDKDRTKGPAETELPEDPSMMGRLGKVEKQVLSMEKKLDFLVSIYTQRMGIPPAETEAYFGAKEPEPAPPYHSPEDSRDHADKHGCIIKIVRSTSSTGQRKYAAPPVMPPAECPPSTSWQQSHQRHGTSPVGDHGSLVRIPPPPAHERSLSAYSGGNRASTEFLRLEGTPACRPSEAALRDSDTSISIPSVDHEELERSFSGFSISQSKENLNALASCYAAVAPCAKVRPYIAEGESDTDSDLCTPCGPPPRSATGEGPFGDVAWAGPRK
# KCNQ2 enhance baseline: recorded beside KCNQ2 enhance, whose call it bears; B-score; compound at 10 µM; measured here: initial fluorescence intensity artifact check;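 brightness before thallium and not channel activity; 0 = typical well and far values either way flag optical interference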
# Numbers without * were called inactive. A portion of the library; the hit share may differ from the screen's.
KCNQ2 enhance	KCNQ2 enhance baseline	Structure
0.15	2.1	CCN(CC(=O)Nc1ccc(S(N)(=O)=O)cc1)S(=O)(=O)c1cc(C)ccc1OC
0.85	-0.72	CC1(C)CC(=O)C(CCC(=O)c2ccccc2)C(C)(C)N1 (configuration not stated)
0.02	-0.06	CC1(C)N=C(N)NC(Nc2ccc(Br)cc2)=N1
0.76	0.77	Cc1ccc(CN2CCN(CC(=O)NCCCN3CCN(c4ccc(F)cc4)CC3)C2=O)cc1
0.57	2	NNC(=O)C1CC(O)CN1S(=O)(=O)c1ccc(Cl)cc1 (configuration not stated)
1.4	-2.3	CC(=O)N1CCN(C(=S)c2ccc([N+](=O)[O-])cc2)CC1
0.5	-0.27	O=C(c1ccccc1)N1CCN(c2ccc(N3CCOCC3)nn2)CC1
1.4	0.04	COCCn1c(SC(C)C(=O)Nc2ccc(N3CCOCC3)cc2)nnc1-c1ccncc1 (configuration not stated)
0.44	0.15	Brc1ccc(-c2nc(-c3ccccn3)no2)o1
0.78	0.01	COC(=O)C1=C(NC(=O)c2cccc(OC)c2)CCS1
0.65	-2.2	O=C(COc1ncnc2ccccc12)NCCc1ccccc1
1.7	-0.57	COc1ccc(Cl)cc1-n1c(N)c(C(N)=O)sc1=S
1.8	0.05	COc1ccc2oc3ccccc3c(=O)c2c1
1.1	-1.7	O=S(=O)(Nc1ncccn1)c1ccc(NC(=S)NCc2cccnc2)cc1
0.5	0	Cc1ccc(S(=O)(=O)/C(C#N)=C/c2c(N3CC(C)OC(C)C3)nc3ccccn3c2=O)cc1 (configuration not stated)
1.9	-1.6	CC(C)CC(Nc1ncnc2scc(-c3ccccc3)c12)C(=O)O (configuration not stated)
0.02	-1.4	Cc1ccc(-c2nnn(CC(=O)N(c3cnc4ccccc4c3)C(C(=O)NC3CCCC3)c3ccncc3)n2)o1 (configuration not stated)
0.27	0.07	CCC(=O)OCC(=O)Nc1cc(C)c(C)cc1[N+](=O)[O-]
3.9	-0.94	CC(=O)c1cccc(CN2CCC(C(=O)Nc3cccc(-c4ccn[nH]4)c3)CC2)c1
0.15	-1.1	O=C1NC2(CCCC2)Oc2ccccc21
0.02	-0.08	O=C(CN1C(=O)CC(c2ccccc2)Sc2ccccc21)NCC1CCCO1 (configuration not stated)
2.7	-0.56	Cc1nc(Nc2ccc(S(=O)(=O)N3CCCC3)cc2)c2nnn(Cc3ccccc3)c2n1
0.47	-0.4	O=C(c1cccnc1)C1CCCN(Cc2nc(Cc3ccccc3)no2)C1 (configuration not stated)
0.01	-0.69	COc1ccc(C(=O)Nc2nc(CC(=O)NCc3ccc(F)cc3)cs2)cc1
0.82	1.2	CC(C)n1c(CN2CCN(C)CC2)nc2c1c(=O)n(C)c(=O)n2C

# More compounds:
KCNQ2 enhance	KCNQ2 enhance baseline	Structure
1.6	-1.2	Cc1cc(C(C)(C)C)ccc1OCCCCN1CCCC1
0.76	0.51	Cn1c(=O)c2ncn(CC(=O)Nc3ccc(N4CCOCC4)cc3)c2n(C)c1=O
1.1	0.02	Cn1cnnc1SCC(=O)Nc1ccc2nc(SCc3ccccc3)sc2c1
0.69	1.2	COc1ccc(CCNC(=O)Cn2c(=O)[nH]c3ccsc3c2=O)cc1OC
1.3	0.02	CCOC(=O)C(Cc1ccccc1)C(=O)NCc1ccccc1 (configuration not stated)
9.1*	-0.26*	CC(C)(C)c1cc(C(=O)NNC(=O)c2ccc(Cl)cc2)no1
0.15	0.83	CC(C)c1cc(=O)n2[nH]c(SCc3ccccc3)nc2n1
0.63	-0.54	CCOc1ccc2ccccc2c1C(=O)N[C@@H]1C(=O)N2[C@@H]1SC(C)(C)[C@@H]2C(=O)O
1.3	0.94	COc1ccc(CNC(=O)CCS(=O)(=O)c2ccc3c(c2)NC(=O)CS3)cc1
1.7	-2.5	CCCn1nnnc1SCC(=O)N1C(C)CCCC1C (configuration not stated)
0.07	-0.49	Cc1ccc(S(=O)(=O)c2cc3c(=O)n4ccccc4nc3n(C3CCCCC3)c2=N)cc1
2.2	-1.3	Cc1cccnc1NC(=O)C(C)Oc1ccccc1 (configuration not stated)
1.3	-0.35	O=C(O)COc1ccccc1/C=N/NC(=O)Cc1ccccc1
0.31	1.1	Cc1cc(Nc2ccc(Br)cc2)n2nc(C)nc2n1
0.92	0.22	COc1cccc(C=Nc2ccccc2C#N)c1O
0.66	0.89	COc1ccc(NC(=O)c2ccccc2)cc1NS(=O)(=O)c1ccc(F)cc1
0.02	0.58	CC1=CC(C)(C)NC(=S)N1c1ccc(C)c(C)c1
1.6	-1.2	Cc1cc(C)nc(SCc2ccccc2C#N)n1
0.5	-2.1	CCCNc1cc(=O)n(C)c(=O)n1C
0.03	0.78	O=C(CN1C(=O)C2C3c4ccccc4C(c4ccccc43)C2C1=O)Nc1cccc(C(=O)O)c1 (configuration not stated)
0.75	0.01	O=C(COc1ccc(Cl)cc1)Nc1nnc(-c2ccco2)o1
0.15	-0.29	c1ccc(CSc2nnc(-c3c[nH]c4ccccc34)o2)cc1
0.27	-0.3	CC(C)CC(=O)Nc1nnc(CSCc2ccc(F)cc2)s1
0.15	-1.2	COc1ccc(NC(=O)C2C3C=CC4(O3)C2C(=O)N(CCN2CCCCC2)C4C(=O)NC2CCCC(C)C2C)cc1 (configuration not stated)
1.3	1.3	COc1ccc(/C=C2\SC(=O)N(CCNC(=O)C3CCN(S(=O)(=O)c4cccs4)CC3)C2=O)cc1

# (continued)
KCNQ2 enhance	KCNQ2 enhance baseline	Structure
1.5	-0.68	Cc1cc(-c2nnc(CCC(=O)NCc3cc(F)cc(C(F)(F)F)c3)o2)no1
0.03	-1.6	O=C(NCc1ccco1)c1ccc(CN2CCOCC2)cc1
2.2	0.32	O=c1ccc(Br)c[nH]1
1.2	-0.78	N#Cc1ccccc1Sc1ccccc1C(=O)OCC(=O)NC1CCS(=O)(=O)C1 (configuration not stated)
0.3	-0.28	O=C(CSc1nc(C2CC2)nc2ccccc12)Nc1cccc(O)c1
0.02	-0.36	CCc1nn(CC(=O)NCCCN(C)Cc2ccccc2)c(=O)c2cc3sc(C)cc3n12
2.7	-2.1	CCn1ncc(C2=NOC(C(=O)Nc3cccc(C(C)=O)c3)C2)c1C (configuration not stated)
0.24	1.6	O=C1C2C3C=CC(c4ccccc4)(C2C(=O)N1c1cccc(Cl)c1)C1C(=O)N(c2cccc(Cl)c2)C(=O)C31 (configuration not stated)
1.3	-1.1	Cc1ccc(C(NC(=O)N2CCOCC2)=C(Cl)Cl)cc1F
1.3	-0.8	Nc1nc(OCc2ccccc2)c2[nH]cnc2n1
0.3	-0.66	O=[N+]([O-])c1cc(C(F)(F)F)ccc1-n1nnc2ccccc21
0.01	0.13	Cc1ccc(-c2csc(NC(=O)COC(=O)c3cccc(S(=O)(=O)N4CCOCC4)c3)n2)cc1
0.73	-1.7	Cc1ccc(S(=O)(=O)c2c[nH]c3ccc(C)cc3c2=O)cc1
0.35	0.39	CCN(CC(=O)Nc1sc2c(c1C#N)CCCC2)Cc1nc2ccccc2c(=O)[nH]1
0.06	0.4	Cc1ccc(NC(=O)CN(C)S(=O)(=O)c2cccs2)c(Br)c1
2.6	0.44	O=C(NC(=S)Nc1cccc([N+](=O)[O-])c1)c1ccco1
1.3	0.43	Cc1ccc(/C=C/C(=O)Nc2ccccc2C(N)=O)cc1
0.14	1.6	O=C(O)c1ccc(CSc2nnc(-c3ccccc3)n2-c2ccccc2)cc1
1.2	0.01	Cc1nn(-c2ccc(F)cc2)c(Cl)c1C(=O)N(C)CC(=O)Nc1cccc(F)c1
0.51	-0.82	CCC(CC)NC(=O)C1CC(=O)N(CCc2ccc(F)cc2)C1 (configuration not stated)
0.94	0.01	Nc1ccc(NC(=O)CCN2CCOCC2)cc1
0.79	-0.94	COC(=O)C1=C(C)N(CCCC(=O)O)C(=O)NC1c1cccs1 (configuration not stated)
0.33	0.39	COc1ccc(CCNC(=O)CSc2n[nH]c(N)n2)cc1OC
0.4	0.24	COc1ccc(N2CCN(C(=S)Nc3ccccc3)CC2)cc1
0.3	0.12	COc1cc(Cl)c(S(=O)(=O)NCc2ccccn2)cc1Cl

# Arranged by formula weight (rising): part of the list above
KCNQ2 enhance	KCNQ2 enhance baseline	Structure
0.15	-1.1	O=C1NC2(CCCC2)Oc2ccccc21
1.8	0.05	COc1ccc2oc3ccccc3c(=O)c2c1
1.3	-0.8	Nc1nc(OCc2ccccc2)c2[nH]cnc2n1
2.2	-1.3	Cc1cccnc1NC(=O)C(C)Oc1ccccc1 (configuration not stated)
0.02	0.58	CC1=CC(C)(C)NC(=S)N1c1ccc(C)c(C)c1
0.44	0.15	Brc1ccc(-c2nc(-c3ccccn3)no2)o1
1.4	-2.3	CC(=O)N1CCN(C(=S)c2ccc([N+](=O)[O-])cc2)CC1
1.7	-0.57	COc1ccc(Cl)cc1-n1c(N)c(C(N)=O)sc1=S
0.51	-0.82	CCC(CC)NC(=O)C1CC(=O)N(CCc2ccc(F)cc2)C1 (configuration not stated)
0.27	-0.3	CC(C)CC(=O)Nc1nnc(CSCc2ccc(F)cc2)s1
1.5	-0.68	Cc1cc(-c2nnc(CCC(=O)NCc3cc(F)cc(C(F)(F)F)c3)o2)no1
0.01	-0.69	COc1ccc(C(=O)Nc2nc(CC(=O)NCc3ccc(F)cc3)cs2)cc1
0.35	0.39	CCN(CC(=O)Nc1sc2c(c1C#N)CCCC2)Cc1nc2ccccc2c(=O)[nH]1
0.02	-1.4	Cc1ccc(-c2nnn(CC(=O)N(c3cnc4ccccc4c3)C(C(=O)NC3CCCC3)c3ccncc3)n2)o1 (configuration not stated)

# Further compounds:
KCNQ2 enhance	KCNQ2 enhance baseline	Structure
1.1	0.18	COc1cc(C2NC(=O)N(C)C(C)=C2C(=O)OCc2ccccc2)cc(Br)c1O (configuration not stated)
0.12	-0.76	COC(=O)[C@H](C)NC(=O)NCc1ccccc1F
0.2	-1.8	COc1ccc(CN2CCNC(=O)C2CC(=O)NCCCC2CCCC2)c(F)c1 (configuration not stated)
2.2	0.44	COC(=O)C(Cc1c[nH]c2ccccc12)NC(=O)c1cccs1 (configuration not stated)
1.4	-0.3	COc1ccc(/C=C/C(=O)NC(=S)NCc2ccccc2)cc1OC
0.32	-1.3	CCOc1ccc(NC(=O)CC2C(=O)NCCN2C(=O)c2ccc(Cl)cc2)cc1 (configuration not stated)
0.44	-0.56	CCc1cc2cc(C)cc(C)c2nc1Cl
0.03	1	Cc1cc(/C=C2\SC(=S)N(C)C2=O)c(C)n1-c1ccccc1O
1.2	0.3	CN(C)CCNC(=O)NC1CCCCC1
1.3	0.05	CCOC(=O)c1sc(NC(=O)CSc2nc(C)cc(C)n2)c(C#N)c1C
0.49	-0.09	CCN(CC(=O)NCc1cccs1)C(=O)CCC(=O)c1ccc(C)cc1
0.23	-1.1	COc1ccccc1C(=O)Oc1ccc(N2C(=O)CCC2=O)cc1
0.74	-1.8	CCOC(=O)C1CCN(C(=O)c2ccc(Cl)c(S(=O)(=O)N3CCCC3)c2)CC1
0.78	-2	COc1cc(CNCc2cccc(OC)c2OC)cc(OC)c1
0.4	-0.17	CCCNC(=O)C1CC(=O)N(c2ccc(OCC)cc2)C1 (configuration not stated)
0.89	0.03	CCOC(=O)c1cc2ccccc2n1CC(=O)c1ccccc1
0.43	-0.62	COc1cc(C)nc(NC(=S)N(C)C(=O)c2ccccc2)n1
1.3	-1.6	CS(=O)(=O)N(CC(=O)N1CCCC1)c1cccc(Cl)c1
1.8	0.24	COc1ccc(/C(C)=N/NC(=O)c2nc(C)cc(C)n2)cc1
1.4	-0.84	CCOc1ccc(/C(O)=C2\C(=O)C(=O)N(CCOCCO)C2c2ccccc2OC)cc1 (configuration not stated)
0.36	-1.2	COc1ccccc1-c1noc(CCCC(=O)Nc2ccc(C(N)=O)cc2)n1
0.12	1.6	CCCC(=O)Nc1ccc(S(=O)(=O)N2CCC(c3nc4ccccc4[nH]3)CC2)cc1
0.49	0.12	O=C(COc1ccc2c(c1)OCO2)Nc1ccc2c(c1)oc1ccccc12
0.6	0.55	Cc1ccccc1CNC(=O)Cn1cnc(S(=O)(=O)N2CCCC2)c1
1.2	0.06	S=c1[nH]nc(CSCCOc2ccccc2)o1

# Going on with the list:
KCNQ2 enhance	KCNQ2 enhance baseline	Structure
0.83	0.14	Cc1ccccc1-c1noc(C2CCCCC2)n1
0.67	1.2	COC(=O)Nc1ccc(S(=O)(=O)N2CCC(C(=O)N3CCCCC3C)CC2)cc1 (configuration not stated)
0.86	-2.4	CC1CN(CC(=O)Nc2ccc([N+](=O)[O-])cc2Br)CC(C)O1 (configuration not stated)
0.9	0.03	Oc1cc2c(cc1CN1CCN(c3ncccn3)CC1)OCO2
0.16	-1.5	Cc1ccccc1NC(=O)NC(C)(C)CC(C)(C)C
0.67	-0.39	CCOC(=O)COn1c(=O)c(-c2ccc(C)cc2)[n+]([O-])c2ccccc21
0.59	-0.2	NC(=O)C1CCN(C(=O)CC(c2ccccc2)c2ccccc2)CC1
2.9	-0.9	CS(=O)(=O)NCCCCNc1ccc(C(F)(F)F)cc1[N+](=O)[O-]
2	-2.2	O=C(NCCN1CCN(c2ccccc2)CC1)Nc1ccc(Cl)cc1
0.53	-0.05	COc1cccc(C(=O)Nc2ccncc2)c1
0.01	-0.06	Cc1cc(=O)[nH]c(N/N=C/CCc2ccccc2)n1
0.48	0	Cc1cc(OCC(=O)NCCc2c[nH]c3ccccc23)c2c(C)c(C)c(=O)oc2c1
0.53	0.65	CC(COS(N)(=O)=O)Cc1ccc(C(F)(F)F)cc1 (configuration not stated)
1.6	-3.6	CCn1nc([N+](=O)[O-])c(C(C#N)c2nc3cc(C(F)(F)F)ccc3s2)c(Cl)c1=O (configuration not stated)
1.1	-0.72	O=C(O)CCN1C(=O)c2ccc(NC(=O)CCc3ccccc3)cc2C1=O
0.39	0.28	CCn1c(=O)cc(SCC(=O)N2CCN(C(=O)c3ccco3)CC2)c2ccccc21
2	-1.1	CCN(CC)C(=O)CSc1ncnc2c(-c3ccc(OC)cc3)nsc12
3.1	-0.16	CC(NC(=O)c1cccc(S(=O)(=O)N2CCN(Cc3ccccc3)CC2)c1)c1ccc(Br)cc1 (configuration not stated)

# Screens: PubChem, Johns Hopkins Ion Channel Center
